# High-throughput results from PubChem BioAssay.
# ClpP mod = qHTS Assay for Activators of ClpP; Potency, µM (doses to about 57.5 µM), without a hit: at the top dose activity change, negative = active; purified B. subtilis ClpP, FRET peptide cleavage, 20 min; AID 651965, 2013; actives 1.9% (n = 340,000); ATP-dependent Clp protease proteolytic subunit (Bacillus subtilis (strain 168)), P80244; active = well fitted falling curve with a large enough effect; inconclusive = small, poorly fitted or top-dose-only effect; inactive = no such curve, though single readings can be large or run the other way; further: the source files actives as falling curves though it sought activators and does not explain the sign; nearly all actives have a fitted effect of over 65% in size; many hits overshoot -100%
# Target sequence (P80244 whole entry, looked up): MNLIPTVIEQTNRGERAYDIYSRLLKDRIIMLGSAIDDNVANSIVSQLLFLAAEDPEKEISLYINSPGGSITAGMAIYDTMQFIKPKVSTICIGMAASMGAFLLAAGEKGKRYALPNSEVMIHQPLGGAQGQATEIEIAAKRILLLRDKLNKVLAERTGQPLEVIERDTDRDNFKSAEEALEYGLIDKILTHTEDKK
#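 Buffer: 100 mM Tris/HCl pH8, 100 mM KCl, 0.05% low protease BSA, 2.5% glycerol, 0.01% Tween-20. ClpP 10 microg/mL final; 20 min RT; delta FRET normalized to ADEP and DMSO controls.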
# Active calls of the source: *; ? = inconclusive. Potency means the concentration at half of the fitted maximal effect. An excerpt; count on the stated rates, not on these rows.
SMILES,ClpP mod
CCOc1ccc(-c2nnc(SCC(=O)NC3CCCC3)nc2-c2ccc(OCC)c(OC)c2)cc1OC,-22%
O=C(Cn1ncc2ccc(Cl)cc21)NCc1ccc(F)cc1,0.1%
CC1CCc2onc(C(=O)N3CCN(c4ccc(Cl)cc4)CC3)c2C1 (centres undefined),2.2%
CCn1c2c(c(=O)n3ncc(C(=O)Nc4ccc(F)c(Cl)c4)c13)CN(Cc1ccc(OC)cc1)CC2,4.6%
CCOC(=O)c1[nH]c(C)c(CCC(=O)NCc2cccc(C)c2)c1C,-0.4%
CCc1ccccc1-n1c2c(cc(-c3nc(-c4ccc(Cl)cc4)cs3)c1=O)C(=O)CC(C)(C)C2,?
Cc1nc2cc(C(=O)NC3CCCCCC3)ccc2n1-c1ccc(Br)cc1,-7.6%
Cc1nn(C(C)C(=O)NCCc2ccccc2)c(=O)c2c1sc1ccccc12 (centres undefined),?
COc1ccc(C(=O)NCc2ccc3c(c2)CCN3C(=O)c2ccc(C)cc2)cc1,1.0%
Cc1cc(C)cc(-n2ccn(CC(=O)Nc3ccccc3C(F)(F)F)c(=O)c2=O)c1,-0.1%
COc1ccc(C(=O)c2[nH]c(N)c(C(=O)NCCc3c[nH]c4ccccc34)c2-c2ccc(C(F)(F)F)cc2)cc1,-6.8%
CCOc1ccccc1NC(=O)C1=C(C)Nc2ncnn2C1c1ccco1 (centres undefined),11%
CCCCOc1ccc(CNC(=O)C2COc3ccc(OC)cc3C2)cc1 (centres undefined),0.8%
COc1ccc([C@H]2CC(=O)C[C@@H](CCn3cc(-c4ccncc4)nn3)O2)cc1,0.4%
CCOc1ccc(CCNC(=O)c2cc3cccc4c3n2CCS4)cc1,22µM*
CCOC(=O)c1cccc(NC(=O)Cc2ccc(NC(=O)N3CCCCc4ccccc43)cc2)c1,-14%
CCc1cccc(C)c1NC(=O)c1ccc2c(c1)CCN2S(=O)(=O)CC,-0.8%
COc1cccc(CNC(=O)c2cc(C)nc3c2c(C)nn3-c2ccc(C)cc2)c1,4.8%
Cc1ccc(NC(=O)c2cc(S(=O)(=O)N(C)C3CCCCC3)ccc2F)cc1C,-1.7%
CCN(Cc1ccccc1)C(=O)CN1C(=O)COc2ccc(S(=O)(=O)N3CCOCC3)cc21,1.2%
COc1ccc(-c2nsc(NC(=O)COc3ccc(C)c(C)c3)n2)cc1,-1.4%
CC(C)c1nc2ccc(C(=O)NCCCN3CCN(c4ccc(F)cc4)CC3)cc2o1,0.5%
O=C(Nc1cccc(C(=O)N2CCN(c3ccccc3F)CC2)c1)c1nsc2ccccc12,-17%
CCOCCCNC(=O)C(c1ccccc1)N1Cc2ccccc2C1=O (centres undefined),-1.4%
CC(C)Oc1ccc(CNC(=O)c2sc3ncccc3c2-n2cccc2)cc1,-0.3%
CCc1ccc(NC(=O)CCc2c(C)nc3nc(-c4cc(OC)cc(OC)c4)nn3c2C)cc1,-3.0%
Cc1cc(C)cc(NC(=O)N2CCC(N3CCCCC3)CC2)c1,-0.2%
CCOc1ccc(-n2c(-c3ccc(C)cc3)nc3c(cnn3-c3ccccc3)c2=O)cc1,-1.3%
O=C(Nc1ccc(-c2nc3ccccc3s2)c(O)c1)c1ccc(Br)cc1,1.3%
Cn1cc(S(=O)(=O)c2cccc(Cl)c2)c(=O)c2cc(F)c(N3CCN(c4ccc(F)cc4)CC3)cc21,-20%
O=C(C[n+]1ccc(Cl)c2ccc(Cl)cc21)c1ccc(F)cc1,-0.8%
Cc1ccc(CN2CCSc3ccc(C(=O)Nc4ccc(Cl)cc4)cc32)cc1,4.3%
COc1cccc(CNC(=O)C2CCCN(c3nn4cc(-c5ccc(C)cc5)nc4s3)C2)c1 (centres undefined),-3.8%
Cc1cc(Cl)ccc1NC(=O)c1cccc(NC(=O)N2CCSc3ncccc32)c1,-30%
Cc1cc(NC(=O)CSc2nc(-c3cccc(F)c3)nc3c2c(=O)n(C)c(=O)n3C)no1,-9.2%
CCOc1ccc(C2c3c(oc4ccccc4c3=O)C(=O)N2c2nnc(C)s2)cc1OC (centres undefined),1.0%
Cc1nc2c(C(=O)NCc3ccccc3)c[nH]n2c(=O)c1Cc1ccccc1Cl,4.3%
CCCc1nc2ccccc2n2c(-c3ccccc3)c3c(=O)n(C)c(=O)n(C)c3c12,-4.1%
COc1ccc(-n2c(C)nc3cc(C(=O)NC4CCCC4)ccc32)cc1,-6.4%
Cc1ccc(C)c(N(C)C(=O)CCNC(=O)Cn2cnc3ccccc3c2=O)c1,-1.3%
COc1cccc(C(=O)Nc2ccccc2-c2nc(-c3ccc(C)cc3)no2)c1,-8.1%
COc1ccc(OC)c(NC(=O)CSc2nc3ccccc3nc2N2CCCCC2)c1,-1.1%
CCCCCCCCN1C(=O)[C@H](CC(=O)N2CCOCC2)C[C@@]2(C(=O)OC)CC(C)(C)CC=C12,2.9%
Cc1ccc(N2CCN(c3ncnc4onc(-c5ccc(F)cc5)c34)CC2)c(C)c1,0.0%
CCOc1ccc(-n2c(=O)c3c4c(sc3n(Cc3cc(=O)n5cc(Cl)ccc5n3)c2=O)CCC4)cc1,-6.4%
COc1cccc(NC(=O)C(=O)NCCc2csc3nc(-c4ccccc4C)nn23)c1,1.0%
COCCN1C(=O)COc2ccccc2C1C(=O)NC(C)(C)C (centres undefined),0.3%
Cc1cc(=O)n(CC(=O)Nc2ccc([N+](=O)[O-])cc2)c(-n2nc(C)cc2C)n1,4.0%
Cc1ccc(C(=O)CSc2nc3cc(C(=O)NC4CCCC4)ccc3c(=O)n2CC2CCCO2)cc1 (centres undefined),0.5%
CCOC(=O)c1c(C)sc(-c2c(-c3cc(C)ccc3C)[nH]c3c2c(=O)[nH]c(=O)n3C)c1O,1.4%

# Among those listed so far, 4 have a thiophene ring, fused or not.
SMILES,ClpP mod
Cc1nn(C(C)C(=O)NCCc2ccccc2)c(=O)c2c1sc1ccccc12 (centres undefined),?
CC(C)Oc1ccc(CNC(=O)c2sc3ncccc3c2-n2cccc2)cc1,-0.3%
CCOc1ccc(-n2c(=O)c3c4c(sc3n(Cc3cc(=O)n5cc(Cl)ccc5n3)c2=O)CCC4)cc1,-6.4%
CCOC(=O)c1c(C)sc(-c2c(-c3cc(C)ccc3C)[nH]c3c2c(=O)[nH]c(=O)n3C)c1O,1.4%

# More entries
SMILES,ClpP mod
COc1ccc(N2CCN(C(CNC(=O)CC(C)C)c3ccc4c(c3)OCO4)CC2)cc1 (centres undefined),-7.9%
CCC1CN(C(=O)Nc2cc(C)cc(C)c2)c2ccccc2O1 (centres undefined),-1.5%
COc1cccc(NC(=O)C(=O)NCC(c2ccc3c(c2)OCO3)N2CCOCC2)c1 (centres undefined),-0.6%
CC(=O)c1ccc(NC(=O)c2sc(-n3nc(C)c(CCC(C)C)c3C)nc2C)cc1,-4.2%
COc1ccc(CNC(=O)c2cc(Nc3ccc(OC)cc3OC)nc3ccccc23)cc1,-0.8%
Cc1ccc(NC(=O)COC(=O)c2ccccc2OCC(=O)Nc2ccc(Br)cc2)c(Br)c1,1.6%
COc1ccc(Cl)c2sc(NC(=O)c3ccc(S(=O)(=O)N4CCOCC4)cc3)nc12,49%
Cc1cccc(NC(=O)CCCn2nc(C)c3c(C)n(-c4ccccc4)nc3c2=O)c1C,-1.9%
COc1ccc2nc(N3CCN(C(=O)c4ccco4)CC3)sc2c1,1.0%
CCCOC(=O)c1cccc(Nc2nc(CCC)cc(=O)[nH]2)c1,-6.8%
Cc1oc2ccc(O)c(CN3CCCCCC3)c2c1C(=O)Nc1cccc(Cl)c1C,-3.5%
CC(C)CN(CC(C)C)c1nc(-c2ccc(Cl)cc2)nc2ccccc12,?
COc1cccc(NC(=O)c2cnc(SCC(=O)N3CCCc4ccccc43)n(C)c2=O)c1,-21%
CCOc1ccc(N2CC(c3nc(-c4cc(OC)c(OC)c(OC)c4)no3)CC2=O)cc1 (centres undefined),-0.1%
CCN(C(=O)CCS(=O)(=O)c1cc2[nH]c(=O)c(=O)[nH]c2cc1C)c1ccccc1,32µM*
O=C(Cn1c2ncccc2c(=O)n1-c1ccccc1)Nc1ccc(Cl)cc1C(F)(F)F,3.5%
COc1ccc(C(C)C)cc1S(=O)(=O)NCCc1c(C)[nH]c2ccc(C)cc12,-3.8%
CCOc1cc(C2CC(=O)Nc3cc4c(cc32)OCCO4)ccc1O (centres undefined),-1.2%
O=S(=O)(c1ccc(Cl)cc1)c1nc(-c2ccccc2)oc1N1CCN(c2ccccc2)CC1,?
Cc1ccc(CNc2ncnc3nc[nH]c23)cc1,1.9%
CCc1ccc(NC(=O)Cn2nnc(C(=O)NCCc3ccccc3)c2N)cc1,0.6%
CCOC(=O)c1ccccc1NC(=O)N1CCC(CN2CCOCC2)CC1,4.8%
Cc1ccc(OCCn2nnc3sc4c(c3c2=O)CCC(C(C)(C)C)C4)cc1 (centres undefined),-1.7%
COc1ccc(-n2c(SCc3ccccc3F)nc3c([nH]c4ccccc43)c2=O)cc1,-6.6%
Cn1c2c(c3cnc4cc(Cl)ccc4c31)CN(Cc1ccc(Cl)cc1)CC2,?
O=C(Nc1ccc2oc(-c3cccnc3)nc2c1)c1ccc(-c2ccc(Cl)cc2)o1,-9.9%
CCNC(=O)c1c(NC(=O)Cc2coc3ccc(CC)cc23)sc2c1CCCC2,-9.2%
COC(=O)[C@]12CCCCC=C1N(CCC1=CCCCC1)C(=O)[C@H](CC(=O)NCc1cccs1)C2,-2.4%
Cc1ccc2c(=O)cc(C(=O)Nc3sc4c(c3C(=O)NCc3ccccc3)CCCC4)oc2c1C,-0.1%
COc1ccc(CNC(=O)c2sc3nc[nH]c(=O)c3c2C)cc1,40µM*
CCn1c(C)c(C)c2cc(C(=O)NCCc3ccc(C)cc3)ccc21,?
CC1=C(C(=O)Nc2cccnc2)C(c2ccc(Cl)cc2)n2nc(-c3ccccc3)nc2N1 (centres undefined),112%
CCc1ccc2occ(CC(=O)Nc3nnc(SC)s3)c2c1,-0.1%
O=C(Nc1ccc(Cl)cc1)C1CCCN(S(=O)(=O)c2ccc3[nH]c(=O)ccc3c2)C1 (centres undefined),-4.1%
O=C(NCc1ccc(Cl)cc1)C1CCCN(c2ncnc3onc(-c4ccc(F)cc4)c23)C1 (centres undefined),-11%
CC(=O)Nc1ccc(OCCCN2CCC(C(O)(c3ccccc3)c3ccccc3)CC2)cc1,0.8%
Cc1ccc(-c2nnc(Nc3ccc(Br)cc3)c3ccccc23)cc1S(=O)(=O)N1CCOCC1,?
O=C(COCc1cc(-c2ccc(F)cc2)on1)Nc1cccc(Cl)c1Cl,1.3%
Cc1ccc(-c2noc(-c3ccccc3NC(=O)C3CC(=O)N(c4ccc(C)cc4)C3)n2)cc1 (centres undefined),-13%
CCN(CC)CCNC(=O)CN1N=C(c2ccc(OC)cc2)CCC1=O,-1.6%

# Compounds listed so far that have two or more sulfur atoms (2):
SMILES,ClpP mod
COc1ccc(Cl)c2sc(NC(=O)c3ccc(S(=O)(=O)N4CCOCC4)cc3)nc12,49%
CCc1ccc2occ(CC(=O)Nc3nnc(SC)s3)c2c1,-0.1%

# New compounds follow:
SMILES,ClpP mod
COc1cccc(NC(=O)CSc2nnc(-c3cccc(OC)c3)o2)c1,-1.9%
O=C(COc1ccc(Cl)cc1)Nc1nnc(S(=O)(=O)N2CCc3ccccc32)s1,0.8%
CCOc1ccc(OCC)c(NC(=O)CCC(=O)N2CCOc3ccccc32)c1,1.4%
COc1ccccc1-c1nnc(C2CCN(C(=O)c3cccc(C)c3)CC2)o1,-11%
CCN1CCN(c2csc3ccc(Cl)cc3c2=O)CC1,-28%
CCOC(=O)N1CCN(C(=O)c2ccc3c(c2)N(Cc2ccccc2F)C(=O)c2ccccc2S3(=O)=O)CC1,-0.6%
CCCCNC(=O)CSc1nc2cc3c(cc2c(=O)n1Cc1ccc(C(=O)NCCc2ccc(OC)c(OC)c2)cc1)OCO3,-1.7%
CCOC(=O)[C@]12CCC=C1N(Cc1ccc(Cl)cc1Cl)C(=O)[C@H](CC(=O)NCc1ccc(C)o1)C2,-6.2%
CC(NC(=O)C1CCN(S(=O)(=O)c2ccc(F)cc2)CC1)c1ccccc1 (centres undefined),?
COc1cc(C(=O)Nc2cc(C)c(O)c(-c3nc4ccccc4s3)c2)cc(OC)c1OC,-2.7%

# Looked up above:
# COc1cc(C(=O)Nc2cc(C)c(O)c(-c3nc4ccccc4s3)c2)cc(OC)c1OC @ ClpP mod: -2.7%
# COc1cccc(NC(=O)CSc2nnc(-c3cccc(OC)c3)o2)c1 @ ClpP mod: -1.9%

# (continued)
SMILES,ClpP mod
CCCCn1nnnc1C(c1ccccc1)N1CCN(c2ccc(C(F)(F)F)cn2)CC1 (centres undefined),?
Cc1cc(Nc2cccc(Cl)c2)nc2ccc(NC(=O)c3cccnc3)cc12,-24%
CCCOc1c(Cl)cc(C(=O)N(Cc2cccc(OC)c2)C2CCS(=O)(=O)C2)cc1Cl (centres undefined),0.6%
COc1ccc(C2C(C(=O)Nc3ccccc3)=C(C)Nc3c(C(=O)Nc4ccccc4)cnn32)cc1 (centres undefined),?
Cc1ccc(S(=O)(=O)c2nnn3c2nc(N2CCC(C)CC2)c2cc(Cl)ccc23)cc1C,3.4%
COC(=O)c1cc2oc3ccccc3c2n1CC(=O)Nc1ccc(N(C)C)cc1,-1.4%
